# Screening data deposited in PubChem by Broad Institute.
# UUG fidelity – modulators of start codon recognition fidelity in yeast | S. cerevisiae UUG-firefly luciferase reporter, luminescence/redox ratio | actives 0.13% (n = 350,000) | activity score, % at 18.7 µM | AID 602363;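 active means replicate mean at a twofold rise or more, about +100% in these data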;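 further: firefly luciferase made from a UUG start codon reports start codon fidelity; reporter light over untreated wells divided by growth signal over untreated wells; some hits fall short of that in this replicate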
# Active calls of the source: *.
SMILES,UUG fidelity
O=C(NCCN1CCCCC1)[C@@H]1[C@@H](CO)[C@@H]2Cn3c(cccc3=O)[C@H]1N2C(=O)C1CCCCC1,-3
COc1cccc(-c2ccc3c(c2)[C@H]2[C@H](CCN2C(=O)c2ccccn2)[C@@H](CO)N3)c1,13
Cc1ccc(S(=O)(=O)N2C[C@@H](O)COC[C@H]3O[C@@H](CC(=O)N[C@H]4CCN(Cc5ccccc5)C4)CC[C@@H]32)cc1,-2
COCC(=O)N1CCCCN2[C@@H](CO)[C@H](c3ccc(-c4ccc(OC)cc4)cc3)[C@@H]2C1,-4
C[C@@H]1CN([C@@H](C)CO)C(=O)c2cc(NS(=O)(=O)c3cn(C)cn3)ccc2O[C@H]1CN(C)S(C)(=O)=O,2
Cc1cc(C(=O)Nc2cccc3c2O[C@H](CN(C)Cc2ccc(C(=O)O)cc2)[C@H](C)CN([C@H](C)CO)C3=O)n(C)n1,-11
C[C@@H]1CN([C@@H](C)CO)C(=O)c2cccc(NS(=O)(=O)c3cccs3)c2O[C@@H]1CN(C)C,2
O=C(c1ccccc1F)N1C[C@H]2[C@@H](c3ccccc31)[C@@H](CO)N2C(=O)c1ccccc1,-6
CO[C@H]1CN(C)C(=O)c2cc(NS(=O)(=O)c3ccccc3)ccc2OC[C@H](C)N(Cc2nccs2)C[C@@H]1C,-2
COc1ccc(NC(=O)Nc2ccc3c(c2)CC(=O)N([C@@H](C)CO)C[C@@H](C)[C@H](CN(C)CC2CC2)O3)cc1,4
O=C(C1CCOCC1)N1CC[C@H]2[C@H](CO)Nc3ccc(-c4ccc(F)cc4)cc3[C@H]21,24
CO[C@H]1CN(C)C(=O)c2cc(NC(=O)Nc3ccccc3F)ccc2OC[C@@H](C)N(C)C[C@@H]1C,-15
COc1ccccc1S(=O)(=O)N1CC[C@@H]2[C@H]1c1cc(-c3ccccc3)ccc1N(C)[C@H]2CO,2
C[C@H]1CN([C@@H](C)CO)C(=O)c2cc(NS(C)(=O)=O)ccc2O[C@@H]1CN(C)S(=O)(=O)c1cn(C)cn1,-14
Cc1ccccc1-c1ccc([C@H]2[C@@H](CO)N3CCCCN(C(=O)Nc4ccc(F)cc4)C[C@@H]23)cc1,7
Cc1ccc(-c2ccc([C@H]3[C@@H](CO)N4CCCCN(C(=O)Nc5cccc(F)c5)C[C@H]34)cc2)cc1,-7
CCNC(=O)C[C@@H]1CC[C@H]2[C@@H](COC[C@@H](O)CN2C(=O)c2cccnc2)O1,-5
O=C(C[C@@H]1C[C@H]2c3cc(NC(=O)C4CCOCC4)ccc3O[C@H]2[C@@H](CO)O1)NC1CCCCC1,-2
CN1c2ccc(-c3ccccc3F)cc2[C@@H]2[C@@H](CCN2C(=O)c2cccc(F)c2)[C@@H]1CO,1
COc1ccccc1C(=O)N1C[C@H]2[C@@H](c3ccccc31)[C@@H](CO)N2C(=O)Cc1cccnc1,-6
CN(C)C(=O)c1ccc(-c2ccc3c(c2)[C@@H]2[C@@H](CCN2C(=O)C2CC2)[C@H](CO)N3C)cc1,8
COCC(=O)NC[C@@H]1[C@H](c2ccccc2)[C@H](CO)N1C(C)=O,3
C/C=C/c1ccc([C@H]2[C@@H](CO)N[C@@H]2CN(CC(C)C)C(=O)c2ccccn2)cc1,-9
COc1ccc(CN(C)C[C@H]2Oc3c(NS(=O)(=O)c4c(C)noc4C)cccc3C(=O)N([C@H](C)CO)C[C@H]2C)cc1,-12
CCC(=O)N1[C@H](CNC(C)=O)[C@H](c2ccc(-c3cccc(F)c3)cc2)[C@@H]1CO,4
C[C@@H]1CN([C@@H](C)CO)C(=O)Cc2cc(NC(=O)CCN3CCOCC3)ccc2O[C@@H]1CN(C)S(=O)(=O)c1ccc(F)cc1,8
COc1ccc(NC(=O)Nc2ccc3c(c2)[C@H]2C[C@H](CC(=O)N4CCCCC4)O[C@@H](CO)[C@H]2O3)cc1,-10
CC(C)NC(=O)N1[C@H](CO)[C@@H](c2ccccc2)[C@H]1CN(C)C(=O)c1ccncc1,-16
Cc1ccc(S(=O)(=O)N2C[C@@H](O)COC[C@H]3O[C@@H](CC(=O)N[C@@H]4CCN(Cc5ccccc5)C4)CC[C@@H]32)cc1,-10
COCC(=O)N1[C@@H](CO)[C@@H]2c3ccccc3N(C(=O)NC(C)C)C[C@@H]21,-14
CN1C[C@@H]2[C@H](c3ccccc31)[C@@H](CO)N2S(=O)(=O)c1ccccc1,-16
C[C@@H]1CN([C@H](C)CO)C(=O)c2cc(NC(=O)C3CCCCC3)ccc2O[C@@H]1CN(C)Cc1ccc(C(=O)O)cc1,0
COc1cccc(C(=O)Nc2ccc3c(c2)C(=O)N(C)C[C@@H](OC)[C@H](C)CN(CC2CC2)[C@@H](C)CO3)c1,3
CO[C@@H]1CN(C)C(=O)c2ccc(NC(C)=O)cc2OC[C@H](C)N(Cc2cc(F)ccc2F)C[C@@H]1C,11
C[C@H]1CN([C@@H](C)CO)C(=O)CCCn2nncc2CO[C@H]1CN(C)C(=O)Nc1ccc(F)cc1,4
C[C@@H]1CN([C@@H](C)CO)C(=O)c2cc(NC(=O)CCN3CCOCC3)ccc2O[C@@H]1CN(C)Cc1ccc(C(=O)O)cc1,21
CN(C)CC#Cc1ccc([C@H]2[C@@H](CO)N3CCCCN(C(=O)C4CC4)C[C@@H]23)cc1,52
C[C@@H]1CN([C@@H](C)CO)C(=O)c2cccc(NS(=O)(=O)c3ccccc3)c2O[C@@H]1CN(C)Cc1ccc(C(F)(F)F)cc1,0
CCC(=O)Nc1ccc2c(c1)OC[C@@H](C)N(C(=O)Cc1cccnc1)C[C@@H](C)[C@@H](OC)CN(C)C2=O,10
C[C@H]1CN([C@@H](C)CO)C(=O)CCCn2nncc2CO[C@H]1CN(C)S(=O)(=O)c1ccc(-c2ccccc2)cc1,11
CCN(C[C@H]1[C@H](c2ccc(C3=CCCC3)cc2)[C@@H](CO)N1C(C)=O)C(C)=O,-6
COc1ccc(S(=O)(=O)N(C)C[C@H]2Oc3ccc(NC(=O)NC4CCCCC4)cc3C(=O)N([C@@H](C)CO)C[C@@H]2C)cc1,1
COc1ccc(CN(C)C[C@H]2Oc3ccc(NS(=O)(=O)c4ccc(Cl)cc4)cc3CC(=O)N([C@H](C)CO)C[C@H]2C)cc1,5
CN1C(=O)c2cc(NC(=O)c3ccccc3Cl)ccc2OC[C@@H]2O[C@H](CC(=O)O)CC[C@H]21,28
CO[C@@H]1CN(C)C(=O)c2cc(NC(=O)Nc3ccccc3F)ccc2OC[C@@H](C)N(C)C[C@@H]1C,-10
COc1ccc(NC(=O)N(C)C[C@@H]2Oc3ccc(NC(=O)NC(C)C)cc3C(=O)N([C@H](C)CO)C[C@@H]2C)cc1,31
COc1ccc(NC(=O)N(C)C[C@H]2OCc3ccccc3-c3ccccc3C(=O)N([C@@H](C)CO)C[C@H]2C)cc1,-4
O=C(C[C@@H]1C[C@H]2c3cc(NS(=O)(=O)c4ccc(F)cc4)ccc3O[C@H]2[C@@H](CO)O1)NCc1cc(F)ccc1F,-1
CCCN1C[C@@H](C)[C@H](OC)CN(C)C(=O)c2ccc(NC(=O)c3cccc(F)c3)cc2OC[C@H]1C,11
Cc1noc(C)c1S(=O)(=O)Nc1ccc2c(c1)C(=O)N([C@H](C)CO)C[C@@H](C)[C@H](CN(C)C(=O)NC1CCCCC1)O2,1

# The final two compounds of the section before lead into the next:
SMILES,UUG fidelity
CCCN1C[C@@H](C)[C@H](OC)CN(C)C(=O)c2ccc(NC(=O)c3cccc(F)c3)cc2OC[C@H]1C,11
Cc1noc(C)c1S(=O)(=O)Nc1ccc2c(c1)C(=O)N([C@H](C)CO)C[C@@H](C)[C@H](CN(C)C(=O)NC1CCCCC1)O2,1
Cc1ccc(S(=O)(=O)N(C)C[C@@H]2Oc3ccc(NC(=O)NC(C)C)cc3CC(=O)N([C@H](C)CO)C[C@@H]2C)cc1,5
CCNC(=O)C[C@@H]1CC[C@H]2[C@@H](COc3ccc(NC(=O)Nc4ccccc4Cl)cc3C(=O)N2C)O1,9
C[C@H](CO)N1C[C@H](C)[C@@H](CN(C)Cc2ccc(C(F)(F)F)cc2)Oc2ccc(NC(=O)NC3CCCCC3)cc2C1=O,4
CCCNC(=O)NC[C@@H]1[C@H](c2ccc(C3=CCCCC3)cc2)[C@H](CO)N1C(C)=O,-10
OC[C@@H]1[C@H](c2ccc(C#CC3(O)CCCC3)cc2)[C@@H]2CN(Cc3cncnc3)CCCCN12,1
CCCNC(=O)[C@@H]1[C@@H](CO)[C@@H]2Cn3c(ccc(C4=CCCCC4)c3=O)[C@H]1N2Cc1cocn1,0
Cc1cccc(S(=O)(=O)N2CC[C@H]3[C@@H](CO)N(C)c4ccc(-c5cccc(C#N)c5)cc4[C@H]32)c1,3
CO[C@@H]1CN(C)C(=O)c2cc(NC(=O)c3ccc(F)cc3)ccc2OC[C@@H](C)N(C(=O)c2ccc(F)cc2)C[C@@H]1C,-5
COc1ccc(S(=O)(=O)Nc2ccc3c(c2)C(=O)N([C@@H](C)CO)C[C@H](C)[C@H](CN(C)Cc2ccc4c(c2)OCO4)O3)cc1,3
CCCNC(=O)Nc1ccc2c(c1)OC[C@H](C)N(Cc1ccc(-c3ccccn3)cc1)C[C@@H](C)[C@H](OC)CN(C)C2=O,-6
O=C(c1ccccn1)N1C[C@@H]2[C@H](c3ccccc31)[C@H](CO)N2C(=O)Nc1ccccc1Cl,29
CO[C@H]1CN(C)C(=O)c2ccc(NS(C)(=O)=O)cc2OC[C@H](C)N(C(=O)C2CCCC2)C[C@H]1C,7
Cc1ccccc1-c1ccc([C@H]2[C@@H](CO)N3CCCCN(S(=O)(=O)c4ccc(F)cc4)C[C@@H]23)cc1,3
Cc1cccc(S(=O)(=O)N(C)C[C@H]2OCc3ccccc3-c3ccccc3C(=O)N([C@H](C)CO)C[C@@H]2C)c1,12
O=C(C1CCOCC1)N1CC[C@H]2[C@H](CO)Nc3ccc(Br)cc3[C@H]21,5
C[C@H]1CN([C@@H](C)CO)C(=O)c2cc(NC(=O)C3CC3)ccc2O[C@H]1CN(C)Cc1ccccc1,-15
Cc1cccc(S(=O)(=O)N2CC[C@@H]3[C@H]2c2cc(-c4cccc(C#N)c4)ccc2N(C)[C@H]3CO)c1,3
CO[C@H]1CN(C)C(=O)c2ccc(NS(C)(=O)=O)cc2OC[C@@H](C)N(C(=O)C2CCC2)C[C@H]1C,24
C[C@H](CO)N1C[C@H](C)[C@H](CN(C)C(=O)c2ccccc2)OCc2ccccc2-c2ccccc2C1=O,13
CC(=O)N(C)C[C@@H]1[C@@H](c2ccc(-c3cccc(C#N)c3)cc2)[C@H](CO)N1C(C)=O,-17

# Taken from above, 3 compounds:
SMILES,UUG fidelity
O=C(NCCN1CCCCC1)[C@@H]1[C@@H](CO)[C@@H]2Cn3c(cccc3=O)[C@H]1N2C(=O)C1CCCCC1,-3
COc1cccc(-c2ccc3c(c2)[C@H]2[C@H](CCN2C(=O)c2ccccn2)[C@@H](CO)N3)c1,13
Cc1ccc(S(=O)(=O)N2C[C@@H](O)COC[C@H]3O[C@@H](CC(=O)N[C@H]4CCN(Cc5ccccc5)C4)CC[C@@H]32)cc1,-2

# (list continues)
SMILES,UUG fidelity
CC(=O)N1CCCCN2[C@@H](CO)[C@@H](c3ccc(-c4ccccc4)cc3)[C@@H]2C1,-2
C[C@@H]1CN([C@H](C)CO)C(=O)Cc2cc(NS(=O)(=O)c3ccc(F)cc3)ccc2O[C@@H]1CN(C)CC1CC1,-4
O=C(C[C@@H]1CC[C@H]2[C@@H](COC[C@@H](O)CN2Cc2cccc(C(F)(F)F)c2)O1)NCCc1ccccc1,9
O=C(C[C@H]1CC[C@@H]2[C@H](COC[C@@H](O)CN2C(=O)c2ccncc2)O1)Nc1ccc(-c2ccccc2)cc1,-8
C/C=C/c1ccc([C@@H]2[C@@H](CO)N(C(C)=O)[C@@H]2CN(C)C(=O)CN(C)C)cc1,1
CO[C@@H]1CN(C)C(=O)c2cc(NC(=O)Nc3ccccc3F)ccc2OC[C@@H](C)N(Cc2ccccc2C(=O)O)C[C@H]1C,5
COCC(=O)N1C[C@H](C)[C@H](OC)CN(C)C(=O)c2cc(NC(=O)c3ccc(F)cc3)ccc2OC[C@H]1C,7
C[C@@H]1CN([C@H](C)CO)C(=O)c2cccc(NC(=O)Nc3ccccc3)c2O[C@@H]1CN(C)S(=O)(=O)c1ccc(F)cc1,5
COCC(=O)NC[C@@H]1N[C@@H](CO)[C@H]1c1ccc(C2=CCCCC2)cc1,-14
CC(C)NC(=O)Nc1ccc2c(c1)C(=O)N([C@H](C)CO)C[C@@H](C)[C@@H](CN(C)S(=O)(=O)c1ccc(F)cc1)O2,3

# Part of the list above, with bars between the fields.
smiles | UUG fidelity
COCC(=O)N1C[C@H](C)[C@H](OC)CN(C)C(=O)c2cc(NC(=O)c3ccc(F)cc3)ccc2OC[C@H]1C | 7
C[C@@H]1CN([C@H](C)CO)C(=O)c2cccc(NC(=O)Nc3ccccc3)c2O[C@@H]1CN(C)S(=O)(=O)c1ccc(F)cc1 | 5

# As entered above:
# In UUG fidelity, `O=C(C[C@H]1CC[C@@H]2[C@H](COC[C@@H](O)CN2C(=O)c2ccncc2)O1)Nc1ccc(-c2ccccc2)cc1` is listed with -8
# In UUG fidelity, `C[C@@H]1CN([C@H](C)CO)C(=O)c2cccc(NC(=O)Nc3ccccc3)c2O[C@@H]1CN(C)S(=O)(=O)c1ccc(F)cc1` is listed with 5
# In UUG fidelity, `COCC(=O)NC[C@@H]1N[C@@H](CO)[C@H]1c1ccc(C2=CCCCC2)cc1` is listed with -14
# In UUG fidelity, `CC(C)NC(=O)Nc1ccc2c(c1)C(=O)N([C@H](C)CO)C[C@@H](C)[C@@H](CN(C)S(=O)(=O)c1ccc(F)cc1)O2` is listed with 3

# Next records follow:
SMILES,UUG fidelity
C[C@@H]1CN([C@@H](C)CO)C(=O)c2cccc(NC(=O)NC3CCCCC3)c2O[C@H]1CN(C)S(C)(=O)=O,-2
C[C@@H]1CN([C@H](C)CO)C(=O)c2cccc(NC(=O)NC3CCCCC3)c2O[C@H]1CN(C)Cc1ccc(-c2ccccc2)cc1,-13
Cc1ccccc1-c1ccc([C@H]2[C@H](CO)N3CCCCN(S(=O)(=O)Cc4ccccc4)C[C@@H]23)cc1,3
O=C(Nc1ccccc1)N1CCCCN2[C@@H](CO)[C@H](c3ccc(C#Cc4ccccn4)cc3)[C@@H]2C1,13

# Some of the compounds tested; count on the stated rates, not on these rows.
